A1 apoptosis 2 = blocks A1, raising caspase activity; MEF A1-2A-BIM cells, caspase-Glo luminescence, 3 h; percent of clofoctol response, DMSO zero; 24,000 tested, under 10 active; caspase activation, % (test concentration not listed); in the data active = caspase activation above about 5.9%;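 also: wells of about 30 µL received 50 nL stock; the first replicate is given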
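Material: mouse embryonic fibroblasts co-expressing A1 and BIM (A1-2A-BIM), primed for A1 dependence / Quantity: 2500 cells/well / Buffer or medium: RPMI-1640 growth medium with 10% FBS / Doses: 50 nL compound per well, pinned / Schedule: 3 h compound exposure at 37 °C / Signal: Caspase-Glo luminescence (DEVD substrate) / Measure: Caspase-3/7 activation, seen as rise in luminescence signal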
The depositor's hits bear a star. Not all compounds are listed; the hit share may differ from the screen's.

| SMILES | A1 apoptosis 2 |
| --- | --- |
| C[C@@H]1CN([C@H](C)CO)C(=O)c2cc(NC(=O)NC3CCCCC3)ccc2O[C@@H](C)CCCCO[C@@H]1CN(C)Cc1ccc2c(c1)OCO2 | 1.0 |
| Cc1ccc(S(=O)(=O)N(C)C[C@H]2OCCCC[C@H](C)Oc3ccc(NC(=O)Nc4c(C)noc4C)cc3C(=O)N([C@H](C)CO)C[C@@H]2C)cc1 | 1.1 |
| C[C@@H]1CCCCO[C@@H](CN(C)S(=O)(=O)c2cn(C)cn2)[C@@H](C)CN([C@H](C)CO)C(=O)c2cc(NC(=O)Nc3ccc(F)cc3)ccc2O1 | -0.9 |
| C[C@H]1CN([C@@H](C)CO)C(=O)Cc2cc(NC(=O)Nc3ccccc3)ccc2O[C@H]1CN(C)CC1CC1 | 0.8 |
| C=CCN1C(=O)[C@]2(O[C@H](CCn3cc([C@H](O)c4ccccc4)nn3)[C@@H]([Si](C)(C)c3ccc(OC)cc3)[C@@H]2C)c2cc(N3CCOC3=O)ccc21 | -0.5 |
| CNC[C@H]1OCCCC[C@H](C)Oc2ccc(NS(=O)(=O)c3ccc(C)cc3)cc2C(=O)N([C@@H](C)CO)C[C@@H]1C | -0.1 |
| CNC[C@@H]1Oc2ccc(NC(=O)Nc3ccc4c(c3)OCO4)cc2C(=O)N([C@H](C)CO)C[C@@H]1C | -1.0 |
| COc1ccc(NC(=O)N(C)C[C@@H]2OCCCC[C@@H](C)Oc3ccc(NC(=O)c4ccccc4)cc3C(=O)N([C@@H](C)CO)C[C@H]2C)cc1 | -0.7 |
| CC(C)NC(=O)N(C)C[C@@H]1Oc2c(cccc2N(C)C)C(=O)N([C@@H](C)CO)C[C@@H]1C | 0.8 |
| COc1ccc(NC(=O)Nc2ccc3c(c2)C(=O)N([C@H](C)CO)C[C@H](C)[C@@H](CN(C)Cc2ccc(Cl)c(Cl)c2)OCCCC[C@@H](C)O3)cc1 | 1.5 |
| C[C@H](CO)N1C[C@H](C)[C@H](CN(C)S(C)(=O)=O)Oc2c(NC(=O)C3CCOCC3)cccc2C1=O | 0.8 |
| C[C@@H]1CCCCO[C@@H](CN(C)C(=O)Cc2ccccc2)[C@H](C)CN([C@H](C)CO)C(=O)c2cc(NC(=O)Nc3ccc(F)cc3)ccc2O1 | 0.8 |
| C[C@@H]1CN([C@@H](C)CO)C(=O)c2cc(NS(C)(=O)=O)ccc2O[C@@H]1CN(C)C(=O)Nc1ccc2c(c1)OCO2 | 1.0 |
| C[C@@H]1CN([C@H](C)CO)C(=O)Cc2cc(NC(=O)NC3CCCCC3)ccc2O[C@H]1CN(C)S(=O)(=O)c1ccc(F)cc1 | 0.8 |
| C[C@@H]1CN([C@@H](C)CO)C(=O)CCCn2nncc2CO[C@H]1CN(C)C(=O)Nc1ccccc1 | -0.3 |

(list continues)
| SMILES | A1 apoptosis 2 |
| --- | --- |
| C[C@H]1CCCCO[C@H](CN(C)C(=O)CCCN(C)C)[C@@H](C)CN([C@@H](C)CO)C(=O)c2cc(NC(=O)c3ccncc3)ccc2O1 | 0.0 |
| C[C@H](CO)N1C[C@H](C)[C@@H](CN(C)S(=O)(=O)c2ccc(Cl)cc2)Oc2c(NC(=O)Nc3ccc(F)cc3)cccc2C1=O | -0.3 |
| C[C@@H]1CN([C@H](C)CO)C(=O)CCCn2cc(nn2)CO[C@H]1CN(C)S(=O)(=O)c1ccc(-c2ccccc2)cc1 | 0.8 |
| CC(C)NC(=O)Nc1ccc2c(c1)CC(=O)N([C@H](C)CO)C[C@H](C)[C@H](CN(C)Cc1ccc(-c3ccccc3)cc1)O2 | -0.2 |
| C[C@H]1CN([C@@H](C)CO)C(=O)c2cccc(NC(=O)Nc3ccc(F)cc3)c2O[C@@H]1CN(C)S(=O)(=O)c1ccc(Cl)cc1 | 1.4 |
| CNC[C@H]1Oc2c(NC(=O)Nc3ccc4c(c3)OCO4)cccc2C(=O)N([C@H](C)CO)C[C@@H]1C | -1.7 |
| Cc1ccc(S(=O)(=O)Nc2ccc3c(c2)C(=O)N([C@@H](C)CO)C[C@@H](C)[C@@H](CN(C)C(=O)Nc2ccccc2)O3)cc1 | 0.4 |
| C[C@@H]1CN([C@@H](C)CO)C(=O)c2cc(NS(C)(=O)=O)ccc2O[C@@H]1CN(C)C(=O)Nc1ccc(F)cc1 | -0.2 |
| C[C@@H]1CN([C@@H](C)CO)C(=O)c2cc(NC(=O)C3CC3)ccc2O[C@@H]1CN(C)C(=O)Nc1ccccc1 | -0.1 |
| C[C@H](CO)N1C[C@H](C)[C@H](CN(C)C(=O)Nc2ccccc2)Oc2ccc(NC(=O)CCN3CCOCC3)cc2CC1=O | 0.4 |
| COc1ccc(S(=O)(=O)N(C)C[C@@H]2Oc3ccc(NC(=O)CCCCCC(=O)Nc4ccccc4N)cc3CC(=O)N([C@@H](C)CO)C[C@H]2C)cc1 | 0.2 |
| C[C@@H]1CN([C@H](C)CO)C(=O)c2cccc(N(C)C)c2O[C@H]1CN(C)Cc1ccc(C(=O)O)cc1 | -1.1 |
| C[C@@H]1CN([C@H](C)CO)C(=O)Cc2cc(NS(=O)(=O)c3ccccc3)ccc2O[C@@H]1CN(C)S(=O)(=O)c1ccc(F)cc1 | 0.0 |
| COc1ccc(NC(=O)Nc2ccc3c(c2)C(=O)N([C@H](C)CO)C[C@@H](C)[C@H](CN(C)Cc2ccc(C(F)(F)F)cc2)OCCCC[C@@H](C)O3)cc1 | 1.2 |
| C[C@@H]1CCCCO[C@H](CN(C)Cc2ccccc2)[C@H](C)CN([C@@H](C)CO)C(=O)c2cc(NS(C)(=O)=O)ccc2O1 | -1.4 |

(further entries)
| SMILES | A1 apoptosis 2 |
| --- | --- |
| C[C@@H]1CCCCO[C@@H](CN(C)Cc2ccccc2)[C@H](C)CN([C@H](C)CO)C(=O)c2cc(N(C)C)ccc2O1 | -0.7 |
| COc1ccc(NC(=O)N(C)C[C@H]2OCCCC[C@H](C)Oc3ccc(NC(=O)c4ccccc4)cc3C(=O)N([C@@H](C)CO)C[C@@H]2C)cc1 | 0.9 |
| Cc1ccc(S(=O)(=O)Nc2ccc3c(c2)C(=O)N([C@@H](C)CO)C[C@H](C)[C@@H](CN(C)S(=O)(=O)c2cccs2)OCCCC[C@@H](C)O3)cc1 | -0.9 |
| C[C@H]1CN([C@@H](C)CO)C(=O)c2cc(NC(=O)c3ccncc3)ccc2O[C@@H]1CN(C)Cc1ccccc1 | 0.9 |
| C[C@H]1CN([C@@H](C)CO)C(=O)c2cc(NC(=O)CCCN(C)C)ccc2O[C@@H]1CN(C)C | 0.3 |
| C[C@H]1CN([C@@H](C)CO)C(=O)c2cc(NC(=O)C3CCCCC3)ccc2O[C@H]1CN(C)C(=O)Nc1ccc2c(c1)OCO2 | -0.4 |
| C[C@@H]1CN([C@@H](C)CO)C(=O)c2cc(NC(=O)Nc3ccc4c(c3)OCO4)ccc2O[C@@H](C)CCCCO[C@H]1CN(C)C(=O)CCCN(C)C | 1.9 |
| C[C@@H]1CN([C@H](C)CO)C(=O)c2cccc(NS(=O)(=O)c3ccc(Cl)cc3)c2O[C@H]1CN(C)Cc1ccc(C(=O)O)cc1 | 0.0 |
| C[C@@H]1CCCCO[C@@H](CN(C)S(C)(=O)=O)[C@@H](C)CN([C@H](C)CO)C(=O)c2cc(NC(=O)Nc3ccc4c(c3)OCO4)ccc2O1 | 0.2 |
| COc1ccc(CN(C)C[C@H]2Oc3c(NC(=O)Nc4ccc(C(F)(F)F)cc4)cccc3C(=O)N([C@@H](C)CO)C[C@@H]2C)cc1 | -0.8 |
| Cc1noc(C)c1S(=O)(=O)Nc1ccc2c(c1)C(=O)N([C@H](C)CO)C[C@@H](C)[C@H](CN(C)S(=O)(=O)c1ccccc1)O2 | -0.8 |
| C[C@H](CO)N1C[C@H](C)[C@H](CN(C)C)Oc2ccc(NS(=O)(=O)c3ccc(F)cc3)cc2C1=O | 0.6 |
| COc1ccc(S(=O)(=O)Nc2ccc3c(c2)C(=O)N([C@H](C)CO)C[C@H](C)[C@@H](CN(C)Cc2ccccc2)OCCCC[C@@H](C)O3)cc1 | 0.3 |
| C[C@@H]1CCCCO[C@@H](CN(C)C(=O)Nc2ccccc2)[C@@H](C)CN([C@H](C)CO)C(=O)c2cc(NC(=O)CCC(F)(F)F)ccc2O1 | 0.6 |
| C[C@@H]1CN([C@@H](C)CO)C(=O)CCCn2nncc2CO[C@@H]1CN(C)C(=O)Nc1ccccc1C(F)(F)F | 0.3 |

2 of the compounds above, field by field.
C[C@H]1CN([C@@H](C)CO)C(=O)c2cc(NC(=O)C3CCCCC3)ccc2O[C@H]1CN(C)C(=O)Nc1ccc2c(c1)OCO2
  A1 apoptosis 2: -0.4
C[C@@H]1CN([C@@H](C)CO)C(=O)c2cc(NC(=O)Nc3ccc4c(c3)OCO4)ccc2O[C@@H](C)CCCCO[C@H]1CN(C)C(=O)CCCN(C)C
  A1 apoptosis 2: 1.9

The results go on:
| SMILES | A1 apoptosis 2 |
| --- | --- |
| COc1ccc(NC(=O)Nc2cccc3c2O[C@@H](CN(C)C(=O)Nc2c(C)noc2C)[C@H](C)CN([C@@H](C)CO)C3=O)cc1 | 0.3 |
| Cc1noc(C)c1NC(=O)Nc1ccc2c(c1)CC(=O)N([C@@H](C)CO)C[C@@H](C)[C@@H](CN(C)C(=O)Nc1cccc3ccccc13)O2 | -0.9 |
| C[C@@H]1CN([C@H](C)CO)C(=O)c2cccc(NC(=O)Nc3ccccc3)c2O[C@H]1CN(C)C | -0.1 |
| O=C(N/N=C/c1ccc(O)cc1)c1ccccc1O | -6.5 |
| COc1ccc(S(=O)(=O)Nc2cccc3c2O[C@@H](CN(C)CC2CCCCC2)[C@@H](C)CN([C@H](C)CO)C3=O)cc1 | 0.0 |
| C[C@@H]1CN([C@@H](C)CO)C(=O)Cc2cc(N(C)C)ccc2O[C@@H]1CN(C)Cc1ccc(C(F)(F)F)cc1 | 1.4 |
| C[C@@H]1CN([C@H](C)CO)C(=O)c2cc(NS(=O)(=O)c3cccs3)ccc2O[C@@H](C)CCCCO[C@@H]1CN(C)Cc1ccc(Cl)c(Cl)c1 | -2.7 |
| C[C@@H]1CN([C@@H](C)CO)C(=O)Cc2cc(NC(=O)Nc3ccccc3)ccc2O[C@H]1CN(C)C(=O)NC1CCCCC1 | -0.7 |
| COc1ccc(NC(=O)N(C)C[C@H]2Oc3ccc(NC(=O)CCCCCC(=O)Nc4ccccc4N)cc3CC(=O)N([C@@H](C)CO)C[C@H]2C)cc1 | 0.5 |
| C[C@@H]1CN([C@@H](C)CO)C(=O)c2cc(NC(=O)CCC(F)(F)F)ccc2O[C@H]1CN(C)S(C)(=O)=O | 0.7 |
| C[C@@H]1CN([C@H](C)CO)C(=O)c2cccc(NS(=O)(=O)c3ccc(Cl)cc3)c2O[C@@H]1CN(C)Cc1ccc(C(=O)Nc2ccccc2N)cc1 | 2.5 |
| Cc1noc(C)c1NC(=O)N(C)C[C@H]1Oc2c(NC(=O)Nc3ccc(C(F)(F)F)cc3)cccc2C(=O)N([C@@H](C)CO)C[C@H]1C | -0.7 |
| NC(=O)C1=C[C@@H](c2csc3ccccc23)C[C@@H](OCCCCO)O1 | -0.4 |
| C[C@@H]1CN([C@H](C)CO)C(=O)Cc2cc(NS(=O)(=O)c3ccccc3)ccc2O[C@@H]1CN(C)S(=O)(=O)c1ccccc1 | 1.5 |
| C[C@@H]1CN([C@H](C)CO)C(=O)c2cccc(NC(=O)Nc3ccccc3)c2O[C@H]1CN(C)C(=O)NC1CCCCC1 | -1.1 |

The listing continues:
| SMILES | A1 apoptosis 2 |
| --- | --- |
| C[C@H]1CN([C@@H](C)CO)C(=O)c2cc(NC(=O)Nc3cccc4ccccc34)ccc2O[C@@H]1CN(C)C | 0.1 |
| COC(=O)CCCCCCC(=O)N/N=C/c1ccc(OC)c(OC)c1 | -0.6 |
| C[C@H]1CN([C@@H](C)CO)C(=O)c2cccc(NC(=O)C3CCOCC3)c2O[C@H]1CN(C)C | -0.7 |
| Cc1noc(C)c1NC(=O)N(C)C[C@@H]1Oc2ccc(NS(=O)(=O)c3cn(C)cn3)cc2C(=O)N([C@H](C)CO)C[C@@H]1C | -0.7 |
| Cc1noc(C)c1NC(=O)N(C)C[C@@H]1Oc2c(NC(=O)Nc3ccc4c(c3)OCO4)cccc2C(=O)N([C@H](C)CO)C[C@H]1C | -0.1 |
| C[C@@H]1CCCCO[C@H](CN(C)Cc2ccc(C(F)(F)F)cc2)[C@@H](C)CN([C@H](C)CO)C(=O)c2cc(NC(=O)Nc3ccc(C(F)(F)F)cc3)ccc2O1 | 1.3 |
| C[C@@H]1CN([C@@H](C)CO)C(=O)Cc2cc(NC(=O)Nc3cccc4ccccc34)ccc2O[C@@H]1CN(C)C(=O)Nc1ccccc1 | 0.7 |
| C[C@H]1CN([C@@H](C)CO)C(=O)c2cc(N(C)C)ccc2O[C@@H]1CN(C)C(=O)Nc1cccc2ccccc12 | 0.6 |
| C[C@@H]1CCCCO[C@@H](CN(C)C(=O)Nc2ccc3c(c2)OCO3)[C@@H](C)CN([C@H](C)CO)C(=O)c2cc(NC(=O)Nc3ccc4c(c3)OCO4)ccc2O1 | 1.3 |
| C[C@@H]1CN([C@H](C)CO)C(=O)c2cccc(NC(=O)Nc3ccc(C(F)(F)F)cc3)c2O[C@@H]1CN(C)CC1CC1 | -0.2 |

Another view of some results above:
mol: C[C@@H]1CN([C@H](C)CO)C(=O)Cc2cc(NS(=O)(=O)c3ccccc3)ccc2O[C@@H]1CN(C)S(=O)(=O)c1ccc(F)cc1
  A1 apoptosis 2: 0.0

mol: C[C@@H]1CCCCO[C@@H](CN(C)S(=O)(=O)c2cn(C)cn2)[C@@H](C)CN([C@H](C)CO)C(=O)c2cc(NC(=O)Nc3ccc(F)cc3)ccc2O1
  A1 apoptosis 2: -0.9

mol: C[C@@H]1CN([C@H](C)CO)C(=O)Cc2cc(NC(=O)NC3CCCCC3)ccc2O[C@H]1CN(C)S(=O)(=O)c1ccc(F)cc1
  A1 apoptosis 2: 0.8

mol: C[C@@H]1CN([C@H](C)CO)C(=O)c2cccc(NC(=O)Nc3ccccc3)c2O[C@H]1CN(C)C(=O)NC1CCCCC1
  A1 apoptosis 2: -1.1
